# PrP UTR inh: suppresses PrP 5' UTR mRNA reporter expression. cell-based PrP 5' UTR mRNA reporter, plate reader. AID 488862. inhibition, % (no concentration beside the values). hit rate 0.35% among 340,000;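 active means every replicate at 50% or more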;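 further: 0 = median of the neutral control wells; tested in H4 reporter cells; numbers are from one replicate; inactives centre near -14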
# Bead autofluor: compound fluorescence in toxin protease inhibitor counterscreen | compound autofluorescence counterscreen, microsphere flow cytometry; active compounds read high | fluorescence intensity (concentration not given with the values) | hit rate 3.1% among 360,000 | AID 624483;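 active means at least 3 SD above the mean of all compounds, about 16000 in these data; inconclusive means too few beads counted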;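 further: 100 nL of 1 mM stock went into each well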
# RN4220 kill: kills Staphylococcus aureus RN4220 | S. aureus RN4220 growth, OD600, 16 h | inhibition, % (test concentration not listed) | hit rate 0.33% among 330,000;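 active means z-score of -3 or lower and OD600 up to 0.18 on both plates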;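 further: plate controls were untreated cells for no effect and reference antibiotic for full effect; stock transfer was 100 nL into about 80 µL; one replicate is shown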
# ugtP null kill: kills S. aureus RN4220 lacking UgtP | S. aureus RN4220 ugtP deletion, OD600 growth, 16 h; some inactives read as strong as hits | growth inhibition, % (concentration not given with the values) | hit rate 0.54% among 330,000 | AID 1259309;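 active means z-score under -3 and OD600 up to 0.15 on both plates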;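 further: plate controls were untreated wells for no effect and antibiotic for full effect; wells of about 80 µL received 100 nL stock; the first replicate is given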
# BJeLR viability: kills HRASV12-expressing BJeLR cells. BJeLR (HRASV12) viability, CellTiter-Glo ATP luminescence, 48 h; reference of the scale not given here. inhibition, % (concentration not given with the values). hit rate 0.17% among 300,000;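 active means replicate mean above 50%; inconclusive means above 50% but judged a plate artefact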;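 further: 50 nL library stock added to about 25 µL; numbers are from one replicate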
# Mtb hypoxia rep: Mtb hypoxia fluorescent reporter inhibition; fluorescence inhibition, % (no concentration beside the values); hit rate 0.1% among 300,000; M. tuberculosis hypoxia-regulated fluorescent reporter, fluorescence;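 active means 35 to 45% if threefold the growth effect, above 45% if 1.5-fold the growth effect; inactive means the rest, general growth blockers included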;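 further: wells of about 50 µL received 100 nL stock; 0% = vehicle wells and 100% = reference inhibitor wells; whole bacteria with a GFP reporter of the hypoxia response; strong numbers were not always called active; many hits fall short of the cut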
# Mtb hypoxia rep growth: recorded beside Mtb hypoxia rep, whose call it bears; growth inhibition, %; measured here: M. tuberculosis growth (absorbance);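 0% = vehicle and 100% = reference antibiotic; read after six days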
# * hit, by the source's call; ? = inconclusive; . = no result given. Not a hit list; about 4% have a hit in one of these screens.
SMILES,PrP UTR inh,Bead autofluor,RN4220 kill,ugtP null kill,BJeLR viability,Mtb hypoxia rep,Mtb hypoxia rep growth
CC(=O)Nc1ccc(NC(=NS(=O)(=O)c2ccccc2)c2ccccc2)cc1,.,.,0.4,-1,.,11,9
COc1ccc(/C=c2\sc3nc(-c4ccccc4)c(-c4ccccc4)n3c2=O)cc1OC,-19,2583,.,.,-4,.,.
COc1cccc(NC(=O)COC(=O)CNS(=O)(=O)c2c(F)cccc2F)c1,-22,11370,2.9,8,1,11,11
O=C(COC(=O)/C=C/c1cccc(F)c1)NC1CC1,-3,6288,4.8,-1,.,0,-3
CC(=O)c1ccc(N2CC(C)(C)C2=O)cc1,-14,4083,10,15,5,15,-7
CN1CCN(C(=O)Nc2ccccc2CC[N+](=O)[O-])CC1,-9,3779,-0.5,-3,6,2,7
CC(=O)c1c(C)[nH]c(C(=O)OCC(=O)c2ccc3c(c2)NC(=O)CO3)c1C,-11,7517,4.7,-19,.,7,-3
Cc1ccc(C2C=C(c3ccccc3)Nc3nc(N4C(=O)CCC4=O)nn32)cc1 (stereo not given),-9,4559,2.5,1,.,4,-5
Cc1ccc(C)c(OCC(=O)Nc2c(C)n(C)n(-c3ccccc3)c2=O)c1,-5,3402,0.7,5,.,3,3
COc1ccc(-c2[nH]ncc2C=NNC(=O)c2cccc([N+](=O)[O-])c2)cc1OC,.,.,5.1,-2,.,-12,-7
Oc1ccc(-c2[nH]ncc2-c2ccc(Br)cc2)c(O)c1,-2,2874,-14,5,6,10,-1
CC(C)(C)OC(=O)C(Cc1ccccc1)NC(=O)c1nc[nH]c1C(=O)N1CCc2ccccc2C1 (stereo not given),.,.,2.7,-13,.,5,10
COc1ccc(N2CCN(C(=O)CN3C(=O)NC(C)(C4CC4)C3=O)CC2)cc1 (stereo not given),-14,4076,3.3,2,.,-5,-1
C/C=C1\COC(C(=O)NCc2ccccc2)(C(F)(F)F)C=C1C=C1CCCCC1 (stereo not given),-25,3090,.,.,8,.,.
CCCCC(=O)Nc1ccc(C(=O)N(CC)c2ccccc2C)cc1,-11,4488,9.7,13,7,10,5
CCOc1ccc(S(=O)(=O)N2CCCCC2)cc1NS(=O)(=O)c1cccs1,-25,9187,10,8,.,13,11
CCc1ccc(C(=O)c2cc3ccc(O)cc3oc2=O)cc1,-27,3899,2.3,14,2,8,10
COc1ccccc1OCc1nnc(SCC(=O)Nc2ccc(N3CCOCC3)cc2)n1C,-36,3048,4.2,5,-5,12,1
O=C(NN1C(=O)/C(=C/C=C/c2ccco2)SC1=S)c1ccncc1,.,3837,0.1,-5,-6,14,8
COC(=O)CSc1nnc(NC(=O)/C=C\c2ccc3c(c2)OCO3)s1,-29,2383,6.4,6,-3,9,0
C=CCNC(=O)c1ccc(CNS(=O)(=O)c2ccc(NC(C)=O)cc2)cc1,-17,9461,0.1,-3,-6,-1,-5
COc1cc(C(=O)/C=C/c2cccnc2)ccc1O,-9,3245,4.1,9,2,5,-1
O=C(NC12CC3CC(CC(C3)C1)C2)N1CCC(n2nnc3ccccc32)CC1,-1,8519,1.7,-3,-3,0,2
Cc1onc(-c2ccccc2)c1C(=O)OCC(=O)N1CCC(C)CC1,-14,8662,1.7,6,.,10,3
CC(C)(C)c1ccc(C2SCC(=O)N2c2cccc(C(=O)O)c2)cc1 (stereo not given),-12,3409,8.3,4,-6,6,-4

# The list continues.
SMILES,PrP UTR inh,Bead autofluor,RN4220 kill,ugtP null kill,BJeLR viability,Mtb hypoxia rep,Mtb hypoxia rep growth
CN(C)S(=O)(=O)c1cccc(C(=O)Nc2ccccc2[N+](=O)[O-])c1,-18,2527,4.5,2,-19,7,7
CCOc1ccc(C(=O)Nc2cnn(Cc3ccc(Cl)c(Cl)c3)c2)cc1,2,16229*,-3.5,1,4,4,0
COc1ccc(/C=C/C(=O)OCC(=O)c2ccc3c(c2)NC(=O)CO3)cc1,-15,4077,11,2,10,-2,-2
COC1=CC(=O)OC(/C=C/c2ccccc2)C1 (stereo not given),5,4475,.,.,-10,.,.
COc1ccccc1-n1c(-c2ccc(F)cc2)coc1=O,-36,3959,6.2,6,3,16,6
Cc1cc(C)c(C)c(S(=O)(=O)NCCCn2ccnc2)c1C,-23,3900,5.3,6,-18,0,5
CC(=NNC(=O)c1ccncc1)C1=C(O)CC(C)(C)CC1=O,.,.,1.6,5,.,9,12
CC(=O)c1ccc(NC(=O)C2(c3ccccc3)CC2(Cl)Cl)cc1 (stereo not given),-34,3583,4.4,-5,5,-1,-4
CC(CC(=O)N1CCN(C=O)CC1)=NNC(=O)c1cc2ccccc2cc1O,.,.,7.5,-5,.,6,-6
CC(C)Cn1c(CN2C(=O)c3ccccc3C2=O)nc2ccccc2c1=O,-4,3886,3.6,4,-6,.,.
COc1ccc(OC)c(/C=C2\SC(=S)N(N3CCOCC3)C2=O)c1,-15,4112,-2.3,7,-13,7,0
CN1CCN(/C=N/c2c(C#N)cnn2Cc2ccccc2)CC1,-24,20606*,.,.,1,.,.
S=c1[nH]nc(-c2ccccc2)n1/N=C/C=C/c1ccco1,-13,2112,.,.,-8,.,.
NC(=O)SCC(=O)Nc1ccc(Cl)c(Cl)c1,-10,2798,22,54,.,.,.
COc1ccc(OC)c(-c2cc(C(=O)N/N=C(\C)c3cccnc3)c3ccccc3n2)c1,-15,5755,.,.,-6,.,.
CCN(CC)CCn1c(=S)[nH]c2ccc(Cl)cc2c1=O,-2,9855,3.5,3,1,-2,-1
O=C(CSc1nnc(CCc2ccccc2)n1-c1ccc(Cl)cc1)c1ccccc1,-6,11135,0.9,-2,-9,5,4
O=C(CSc1ccc(-c2nc3ccccc3[nH]2)cn1)Nc1ccc2c(c1)OCCO2,-190,9917,9.3,11,8,14,3
COc1cccc(CNC(=O)CSc2nnc3c(n2)[nH]c2ccccc23)c1,-5,4447,2.9,20,1,12,-3
c1ccc2oc(Cc3ccc(Cc4nc5ccccc5o4)cc3)nc2c1,6,4085,1.9,-5,-4,9,12
O=[N+]([O-])c1ccc(OCC(O)CNC2CCCC2)cc1 (stereo not given),-9,5396,-0.7,18,1,7,11
CCn1cc(C(=O)O)c(=O)c2cnc(N3CCN(C(=S)NC(=O)c4ccc(Br)cc4)CC3)nc21,.,.,15,6,12,5,-4
O=[N+]([O-])c1cc(Br)c(O)c(/C=N/Nc2nc3ccccc3s2)c1,-7,2487,.,.,7,.,.
ON=Cc1ccnc(SCc2ccccc2)n1,.,.,4.1,7,.,3,10
COc1ccc(C(=O)N/N=C/c2ccc(OC)c(OS(=O)(=O)c3ccccc3)c2)cc1,-16,2694,.,.,-4,.,.

# Later entries
SMILES,PrP UTR inh,Bead autofluor,RN4220 kill,ugtP null kill,BJeLR viability,Mtb hypoxia rep,Mtb hypoxia rep growth
O=C(NN=Cc1ccccn1)C1c2ccccc2Oc2ccccc21,.,.,3.0,-5,.,-7,-15
Cc1ccc2c(c1)-c1cc(C)ccc1C2=O,-7,3696,8.1,18,.,10,6
Cc1onc(-c2c(F)cccc2Cl)c1C(=O)ONC(=O)c1ccco1,-15,6192,5.3,12,-4,2,0
O=C(COC(=O)COc1ccc(Cl)cc1)NC1CCCCCC1,-27,?,1.6,1,.,9,14
CCOc1ccccc1NC(=O)c1cccc(NC2=NC3CS(=O)(=O)CC3S2)c1 (stereo not given),-4,4626,2.3,-4,-5,3,9
CN1CC(=O)Nc2ccc(Br)cc2C1=O,-3,3666,.,.,12,.,.
Cc1cc(C)cc(NC(=S)NCCCO)c1,-57,2020,4.5,4,-1,2,6
O=c1[nH]c2ccccc2n2c(-c3ccccc3)nnc12,-28,4256,-0.2,5,9,.,.
CCOC(=O)c1cccc(NC(=O)c2cccnc2)c1,-25,8289,0.3,15,2,12,9
COc1cc(C(=O)Nc2cc(C)nn2-c2ccccc2)cc(OC)c1OC,3,3269,-1.1,0,-3,-9,-2
COc1ccc(S(=O)(=O)N2CCCCCC2)cc1C(=O)N(C)CC(=O)Nc1ccccc1C(F)(F)F,-41,3691,4.2,4,.,7,-3
Cc1cc(CNC(=O)CC2C(=O)NCCN2Cc2ccccc2C(F)(F)F)on1 (stereo not given),-9,3396,7.0,7,7,11,-2
CCN1C(=O)C2C(c3ccc(-c4ccc(OC)cc4)c(OC)c3)N[C@@](CC(C)C)(C(=O)OC)C2C1=O (stereo not given in full),.,.,7.9,-10,.,10,9
Cc1ccc(NNC(=O)c2c(F)cccc2Cl)cc1Cl,-16,3507,7.5,13,-1,8,0
O=C(Nc1cccc(S(=O)(=O)N2CCCCCC2)c1)c1ccc2c(c1)OCO2,7,2571,3.1,1,6,-10,6
Cc1noc(C)c1CSCC(=O)Oc1ccc(N(C)S(=O)(=O)c2ccc(Cl)cc2)cc1,-24,?,10,4,5,7,4
CC(=O)c1cccc(NC(=O)c2ccccc2N(Cc2ccccc2)S(C)(=O)=O)c1,-13,4077,4.1,4,0,14,6
CCN(CC)CCNC(=O)c1ccc(CS(=O)(=O)c2ccccc2C)o1,-13,3489,-3.1,11,3,0,14

# By substructure, those above containing a Cl atom
SMILES,PrP UTR inh,Bead autofluor,RN4220 kill,ugtP null kill,BJeLR viability,Mtb hypoxia rep,Mtb hypoxia rep growth
CCOc1ccc(C(=O)Nc2cnn(Cc3ccc(Cl)c(Cl)c3)c2)cc1,2,16229*,-3.5,1,4,4,0
CC(=O)c1ccc(NC(=O)C2(c3ccccc3)CC2(Cl)Cl)cc1 (stereo not given),-34,3583,4.4,-5,5,-1,-4
NC(=O)SCC(=O)Nc1ccc(Cl)c(Cl)c1,-10,2798,22,54,.,.,.
CCN(CC)CCn1c(=S)[nH]c2ccc(Cl)cc2c1=O,-2,9855,3.5,3,1,-2,-1
O=C(CSc1nnc(CCc2ccccc2)n1-c1ccc(Cl)cc1)c1ccccc1,-6,11135,0.9,-2,-9,5,4
Cc1onc(-c2c(F)cccc2Cl)c1C(=O)ONC(=O)c1ccco1,-15,6192,5.3,12,-4,2,0
O=C(COC(=O)COc1ccc(Cl)cc1)NC1CCCCCC1,-27,?,1.6,1,.,9,14
Cc1ccc(NNC(=O)c2c(F)cccc2Cl)cc1Cl,-16,3507,7.5,13,-1,8,0
Cc1noc(C)c1CSCC(=O)Oc1ccc(N(C)S(=O)(=O)c2ccc(Cl)cc2)cc1,-24,?,10,4,5,7,4
